total CFTR = compounds raising F508del-CFTR protein level – cell-based, HeLa F508del-CFTR, immunofluorescence, viability, primary screen (AID 1224863). HeLa F508del-CFTR, immunofluorescence total CFTR, 24 h; by the record results were divided by relative cell number; some inactives read as strong as hits. calls, or highest fold increase where a dose series was run. 0.1% of 10,000 active; in the data nearly all actives have a first-pass fold increase above 1.5; a few of its hits are not listed in these tables;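 also: total CFTR protein by anti-CFTR immunofluorescence in fixed cells; first pass at 25 µM or 10 µg/mL by library and series up to twice that; 1 = untreated cells; first-pass hits also needed half or more of the cells alive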
total CFTR fold 25 µM = further read-out of total CFTR, marked with its call; fold increase; measured here: primary screen single dose 25 uM; library dosed in µM
total CFTR fold 10 ug/mL = second read-out of total CFTR, no call of its own (marks repeat the call); fold increase; measured here: primary screen 10 ug/mL
total CFTR viability 25 µM = second read-out of total CFTR, no call of its own (marks repeat the call); viability, %; measured here: primary viability 25 uM; library dosed in µM;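 0% = killed and 100% = untreated cells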
total CFTR viability 10 ug/mL = recorded beside total CFTR, whose call it bears; viability, %; measured here: primary viability 10 ug/mL;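 0% = killed and 100% = untreated cells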
* marks the source's active call; other numbers are inactive results; i = inactive; . = no result given; & = joins results of further samples.

Preview, 2 compounds:
SMILES | total CFTR | total CFTR fold 10 ug/mL | total CFTR viability 10 ug/mL | others
O=C1c2ccccc2NC(c2cccc(O)c2O)N1c1ccc2c(c1)OCCO2 (stereo unspecified) | i | 0.96 | 90
OCCNCCSc1nnc2ccccn12 | i | 1.1 | 81

This part in full, previewed entries included:
SMILES | total CFTR | total CFTR fold 10 ug/mL | total CFTR viability 10 ug/mL | others
O=C1c2ccccc2NC(c2cccc(O)c2O)N1c1ccc2c(c1)OCCO2 (stereo unspecified) | i | 0.96 | 90
OCCNCCSc1nnc2ccccn12 | i | 1.1 | 81
O=S(=O)(c1cccs1)N1CCN(Cc2csc3ccccc23)CC1 | i | 1 | 92
CC1CCCC(C)N1 (stereo unspecified) | i | . | . | total CFTR fold 25 µM=0.93;total CFTR viability 25 µM=105
O=C(CCS(=O)(=O)C1CCCC1)N1CCN(Cc2nnc3n2CCCCC3)CC1 | i | 0.96 | 90
Cc1c2c(nc3ccccc13)-c1cccc(F)c1SC2 | i | 0.88 | 95
Cn1cnn(CN2CCN(C(=O)c3ccc(Cl)cc3Cl)CC2)c1=S | i | 0.92 | 95
O=S(=O)(Nc1ccc(C23CC4CC(CC(C4)C2)C3)cc1)c1ccc(Cl)s1 | i | 1.3 | 89
O=C(Nc1ccc2c(c1)CCO2)c1ccc(=O)[nH]n1 | i | 0.89 | 92
CC(Sc1ncc2ccccn12)c1nnnn1-c1ccccc1 (stereo unspecified) | i | 0.87 | 93
O=C1CN(Cc2sc3ccccc3c2Cl)CCN1 | i | 1 | 92
Cc1nnc(SC(C(=O)NC(N)=O)C(C)C)n1C (stereo unspecified) | i | 1.2 | 97
COc1ccc(Br)cc1CN(C)S(=O)(=O)c1ccc2c(c1)OCCO2 | i | 1 | 76
CC1(C)C2CC[C@]3(C)C(C(=O)C=C4[C@@H]5C[C@@](C)(C(=O)O)CC[C@]5(C)CC[C@]43C)[C@@]2(C)CC[C@@H]1OC(=O)CCC(=O)O (stereo partly specified) | i | . | . | total CFTR fold 25 µM=1;total CFTR viability 25 µM=99
CCCCn1c(SCCNCCO)nnc1C(CC)N(C)C (stereo unspecified) | i | 1.1 | 99
O=C(Cn1nc(-c2ccc(F)cc2)oc1=O)C12CC3CC(CC(C3)C1)C2 | i | 0.89 | 90
CSc1ncc(Cl)c(C(=O)OCc2cc(=O)n3ccccc3n2)n1 | i | 1.1 | 99
O=S(=O)(c1ccc2c(c1)CCCC2)N1CCN(Cc2ccncc2)CC1 | i | 0.87 | 88
O=C1C2CCCN2C(=O)N1Cc1c(Cl)cccc1Cl (stereo unspecified) | i | 0.95 | 98
CCN(CC)CCN1C(=O)C(=O)/C(=C(\O)c2ccc(F)cc2)C1c1ccc(F)cc1 (stereo unspecified) | i | 1.1 | 93
O=S(=O)(NCc1ccc(S(=O)(=O)N2CCCC2)s1)c1ccc2c(c1)CCCC2 | i | 0.92 | 85
Cc1ccc(S(=O)(=O)Nc2cc(S(C)(=O)=O)ccc2C)c(C)c1 | i | 0.96 | 96
O=c1n(CN2CCN(Cc3ccc4c(c3)OCO4)CC2)nnn1-c1cccs1 | i | 1 | 81
O=C(COC(=O)c1ccc(O)cc1O)c1ccc(Cl)s1 | i | 0.93 | 88
Cc1c(N(C)CS(=O)(=O)O)c(=O)n(-c2ccccc2)n1C | i | . | . | total CFTR fold 25 µM=1.2;total CFTR viability 25 µM=93
O=C1CC2(CCCCC2)C(=O)N1CC(=O)N1N=C(c2ccco2)CC1c1cccs1 (stereo unspecified) | i | 1 | 92
CCN1CCN(C(=O)NC(C(=O)NC2C(=O)N3C(C(=O)O)=C(CSc4nnnn4C)CSC23)c2ccc(O)cc2)C(=O)C1=O (stereo unspecified) | i | . | . | total CFTR fold 25 µM=0.98;total CFTR viability 25 µM=103
COc1ccc(N)cc1OCC(F)(F)F | i | 1 | 103
CCCCNS(=O)(=O)c1ccc2c(c1)CCC2 | i | 1 | 85
CCCn1c(SCC(=O)c2c(N)n(C)c(=O)n(C)c2=O)nc2sc3c(c2c1=O)CCC(C(C)(C)CC)C3 (stereo unspecified) | i | 1.1 | 95
CC1CCCN(Cc2nc3ccsc3c(=O)[nH]2)C1 (stereo unspecified) | i | 1 | 99
O=S(=O)(NCc1ccc(Cn2cncn2)cc1)C1=Cc2ccccc2CC1 | i | 1.2 | 93
O=C(OCCOc1ccc(Br)cc1)C1(c2cccc(F)c2)CCCC1 | i | 0.97 | 77
S=c1n(CN2CCN(Cc3ccsc3)CC2)nc2ccccn12 | i | 1 | 111
NC1CCc2c(F)cccc21 (stereo unspecified) | i | 0.98 | 96
Cn1c(SCc2ccc(-n3cccn3)cc2)nc2ccccc21 | i | 0.97 | 92
Nc1ccc(S(=O)(=O)Nc2ncccn2)cc1 | i | . | . | total CFTR fold 25 µM=1&1.1&1;total CFTR viability 25 µM=98&102&110
CC(C)CN1CCN(c2nnc(-c3ccc(F)cc3)c3ccccc23)CC1 | i | 0.92 | 91
Nc1nc2c(s1)Cc1ccccc1-2 | i | 1 | 97
O=[N+]([O-])c1c(NCCCn2cnc3ccccc32)nc2sccn12 | i | 1.1 | 87
CC(Sc1ccc(Br)cc1)C(=O)O (stereo unspecified) | i | 0.92 | 93
CN(C)CCC(c1ccccc1)c1ccccn1 (stereo unspecified) | i | . | . | total CFTR fold 25 µM=1.1;total CFTR viability 25 µM=93
Cc1cnc(NC(=O)C2CCCN2c2nccs2)s1 (stereo unspecified) | i | 1 | 93
CCOC(=O)c1[nH]c(C)c(C(=O)OC(C)C(=O)NC(C)(C)C)c1C (stereo unspecified) | i | 1.1 | 97
Nc1nc(COC(=O)C23CCC(=O)N2c2ccccc2S3)nc(Nc2ccc(F)cc2)n1 (stereo unspecified) | i | 0.91 | 80

Fetched by compound from the entries so far:
SMILES | total CFTR | total CFTR fold 10 ug/mL | total CFTR viability 10 ug/mL | others
Cc1cnc(NC(=O)C2CCCN2c2nccs2)s1 (stereo unspecified) | i | 1 | 93
Nc1ccc(S(=O)(=O)Nc2ncccn2)cc1 | i | . | . | total CFTR fold 25 µM=1&1.1&1;total CFTR viability 25 µM=98&102&110
O=C(OCCOc1ccc(Br)cc1)C1(c2cccc(F)c2)CCCC1 | i | 0.97 | 77
CC(Sc1ccc(Br)cc1)C(=O)O (stereo unspecified) | i | 0.92 | 93
O=[N+]([O-])c1c(NCCCn2cnc3ccccc32)nc2sccn12 | i | 1.1 | 87
O=S(=O)(NCc1ccc(Cn2cncn2)cc1)C1=Cc2ccccc2CC1 | i | 1.2 | 93

Carrying on.
SMILES | total CFTR | total CFTR fold 10 ug/mL | total CFTR viability 10 ug/mL | others
c1ccc2c(c1)CC(CNc1ccc3nnnn3n1)O2 (stereo unspecified) | i | 1.1 | 109
CCCc1cc(=O)[nH]c(SCC)n1 | i | 0.96 | 85
c1coc(Cn2nnnc2SCc2ccc(-n3cccn3)cc2)c1 | i | 0.9 | 89
COC(=O)Cn1nnn(-c2cccs2)c1=O | i | 0.92 | 95
CCCCCCCCCC(=O)N[C@@H](Cc1c[nH]c2ccccc12)C(=O)N[C@H](CC(N)=O)C(=O)N[C@@H](CC(=O)O)C(=O)N[C@@H]1C(=O)NCC(=O)N[C@@H](CCCN)C(=O)N[C@@H](CC(=O)O)C(=O)N[C@H](C)C(=O)N[C@@H](CC(=O)O)C(=O)NCC(=O)N[C@H](CO)C(=O)N[C@@H]([C@@H](C)CC(=O)O)C(=O)N[C@@H](CC(=O)c2ccccc2N)C(=O)O[C@@H]1C | i | . | . | total CFTR fold 25 µM=0.93;total CFTR viability 25 µM=94
CNC(=O)c1ccccc1Sc1ccc2c(/C=C/c3ccccn3)n[nH]c2c1 | i | . | . | total CFTR fold 25 µM=1.1;total CFTR viability 25 µM=72
CC(=O)c1c(C)[nH]c(C(=O)N(C)Cc2ccc(C3CC3C)o2)c1C (stereo unspecified) | i | 0.9 | 97
CCc1cccc2c3c([nH]c12)[C@@](CC)(CC(=O)O)OCC3 | i | . | . | total CFTR fold 25 µM=0.91;total CFTR viability 25 µM=94
COc1ccc(OCc2nnc(SCC(=O)c3cc(C)n(-c4ncn[nH]4)c3C)o2)cc1 | i | 1.2 | 79
CC(CNC(=O)c1cc(Cl)c[nH]1)N1CCOCC1 (stereo unspecified) | i | 1.1 | 96
C[C@H](CCC(=O)O)[C@H]1CCC2C3C(=O)CC4CC(=O)CC[C@]4(C)C3CC(=O)[C@@]21C (stereo partly specified) | i | . | . | total CFTR fold 25 µM=1;total CFTR viability 25 µM=105
O=c1n(CN2CCN(c3ccc(C(F)(F)F)cn3)CC2)nc2ccccn12 | i | 1.1 | 101
Cn1c(-c2cccnc2)nn(CN2CCCC2c2ccccc2)c1=S (stereo unspecified) | i | 1 | 91
O=[N+]([O-])c1ccc(Sc2nnc3n2CCCCC3)nc1 | i | 0.82 | 89
CCCn1nnnc1Cn1nnc(-c2ccc(F)cc2)n1 | i | 0.94 | 102
CC(C)c1ccc(C(NC(=O)CN2C(=O)NC(C)(c3ccc4c(c3)OCO4)C2=O)C(C)C)cc1 (stereo unspecified) | i | 0.84 | 81
N#CCSc1nc2ccc(Br)cc2c(=O)n1Cc1ccco1 | i | 1.1 | 96
CCOC(=O)C(C)(C)Oc1ccc(Cl)cc1 | i | . | . | total CFTR fold 25 µM=1.2&1.1&0.98;total CFTR viability 25 µM=131&90&100
Cc1ccc(CNC(=O)CNC(=O)C2CCCC2)n1C | i | 0.88 | 100
COc1ccc(Br)cc1CN(C)S(C)(=O)=O | i | 1 | 98
CCOC(=O)c1sc2nc(C)nc(N3CCNC(=O)CC3)c2c1C | i | 0.96 | 94
Oc1cc(O)c2c(c1)O[C@H](c1ccc(O)c(O)c1)[C@@H](O)C2 | i | . | . | total CFTR fold 25 µM=1;total CFTR viability 25 µM=93
CCCCOc1ccc(C2C(C#N)=C(C)NC(C)=C2C#N)cc1 | i | 0.96 | 83
C=CCn1c(SCc2nccn2C(F)F)nc2ccccc2c1=O | i | 0.91 | 90
CC(C)(C)C(=O)COC(=O)c1ccccc1I | i | 1 | 97
CC(C)(C)c1ccc(C2(C)NC(=O)N(CC(F)(F)F)C2=O)cc1 (stereo unspecified) | i | 0.93 | 91
CC(NC(=O)CC12CC3CC(CC(C3)C1)C2)C1CC2CCC1C2 (stereo unspecified) | i | 0.97 | 98
CCN(CC)S(=O)(=O)c1ccc(S(=O)(=O)NC(C)(C)C)cc1 | i | 1.1 | 102
CC(C)(C)c1ccc(COc2c(I)cc(Cl)c3cccnc23)cc1 | i | 0.9 | 105
C[C@]12CCC(=O)C=C1C=CC1C2CC[C@@]2(C)C1CC[C@@]21CCC(=O)O1 (stereo partly specified) | i | . | . | total CFTR fold 25 µM=1.1;total CFTR viability 25 µM=88

Arranged by molar mass (lowest first): some entries from above
SMILES | total CFTR | total CFTR fold 10 ug/mL | total CFTR viability 10 ug/mL | others
CC(NC(=O)CC12CC3CC(CC(C3)C1)C2)C1CC2CCC1C2 (stereo unspecified) | i | 0.97 | 98
C[C@]12CCC(=O)C=C1C=CC1C2CC[C@@]2(C)C1CC[C@@]21CCC(=O)O1 (stereo partly specified) | i | . | . | total CFTR fold 25 µM=1.1;total CFTR viability 25 µM=88
CCOC(=O)c1sc2nc(C)nc(N3CCNC(=O)CC3)c2c1C | i | 0.96 | 94

More structures follow.
SMILES | total CFTR | total CFTR fold 10 ug/mL | total CFTR viability 10 ug/mL | others
COC(=O)c1sccc1NC(=O)CSC12CC3CC(CC(C3)C1)C2 | i | 0.96 | 83
COc1ccc(C)cc1-n1nnnc1SCC1CC1(Cl)Cl (stereo unspecified) | i | 0.87 | 86
C=C1c2c(Cl)ccc(O)c2C(O)=C2C(=O)[C@]3(O)C(O)=C(C(N)=O)C(=O)[C@@H](N(C)C)[C@@H]3[C@@H](O)[C@H]12 | i | . | . | total CFTR fold 25 µM=0.89;total CFTR viability 25 µM=70
Cc1noc(C)c1CC(=O)NCCSC1CCCC1 | i | 1 | 83
Cc1cc(C(=O)COC(=O)c2ccc([N+](=O)[O-])o2)c(C)n1-c1ccc2c(c1)OCO2 | i | 1.1 | 102
CCC1CCC2(CC1)NC(=O)N(CC(=O)NCC(=O)NC(C)(C)C)C2=O (stereo unspecified) | i | 1.1 | 82
CSc1ccc(C2C3=C(CC(C)(C)CC3=O)Nc3c2c(=O)[nH]c(=O)n3CC(C)C)cc1 (stereo unspecified) | i | 0.96 | 86
COc1cc(Br)c(S(=O)(=O)N(C)Cc2ccc(Br)cc2)cc1OC | i | 0.95 | 93
CC(OC(=O)c1ccc(N(C)C)nc1)C(=O)C12CC3CC(CC(C3)C1)C2 (stereo unspecified) | i | 1.1 | 113
O=c1[nH]c(CSC2CCCC2)nc2c(Br)cc(Br)cc12 | i | 0.91 | 94
Cn1cnc([N+](=O)[O-])c1Sc1ncnc2nc[nH]c12 | i | . | . | total CFTR fold 25 µM=1&1;total CFTR viability 25 µM=80&70
Cc1cc(C)n2nc(SCc3cn4ccccc4n3)nc2n1 | i | 1 | 76
COc1cc2c(cc1/C=C/C(=O)c1ccc(O)cc1)OC(C)C2 (stereo unspecified) | i | 0.86 | 85
CN(C)c1nc(N)nc(CN2C(=O)NC(Cc3c[nH]c4ccccc34)C2=O)n1 (stereo unspecified) | i | 1.4 | 103
Cc1ccc(-c2nnn(CN3CCN(c4ncccn4)CC3)n2)cc1 | i | 1.1 | 92
O=C(CN1CCN(CC(=O)c2c[nH]c(C(=O)N3CCCC3)c2)CC1)NC1CC1 | i | 1.1 | 92
COCCCn1c(=O)c2ccccc2n2c(SCC3CNC(=O)O3)nnc12 (stereo unspecified) | i | 1.1 | 101

Screening data (PubChem BioAssay)

This is a subset. The share of hits here may be higher or lower than overall.
